Mtb hypoxia rep: PubChem AID 1159583. M. tuberculosis hypoxia-regulated fluorescent reporter, fluorescence. fluorescence inhibition, % (test concentration not listed). 300,000 tested, 0.1% active;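 active = 35 to 45% if threefold the growth effect, above 45% if 1.5-fold the growth effect; inactive = the rest, general growth blockers included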;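 also: wells of about 50 µL received 100 nL stock; 0% = vehicle wells and 100% = reference inhibitor wells; whole bacteria with a GFP reporter of the hypoxia response; strong numbers were not always called active; many hits fall short of the cut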
Sa RN4220 lethal: growth inhibition of S. aureus RN4220, primary screen, OD600 | 16 h | inhibition, % (concentration not given with the values) | 330,000 tested, 0.33% active;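 active = z-score of -3 or lower and OD600 up to 0.18 on both plates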;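 also: plate controls were untreated cells for no effect and reference antibiotic for full effect; stock transfer was 100 nL into about 80 µL; one replicate is shown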
Sa ugtP lethal: growth inhibition of ugtP-null S. aureus, primary screen, RN4220 ugtP deletion, OD600; growth inhibition, % (no concentration beside the values); 330,000 tested, 0.54% active; 16 h; some inactives read as strong as hits; AID 1259309, 2017;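 active = z-score under -3 and OD600 up to 0.15 on both plates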;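 also: plate controls were untreated wells for no effect and antibiotic for full effect; wells of about 80 µL received 100 nL stock; the first replicate is given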
BJeLR lethal: MLPCN primary cell-based screen for lethality selective to Ras in HRASV12 cells. BJeLR (HRASV12) viability, CellTiter-Glo ATP luminescence, 48 h; reference of the scale not given here. inhibition, % (no concentration beside the values). 300,000 tested, 0.17% active. AID 1554, 2009;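 active = replicate mean above 50%; inconclusive = above 50% but judged a plate artefact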;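 also: 50 nL library stock added to about 25 µL; numbers are from one replicate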
PrP UTR inh: inhibition of PrP 5' UTR reporter expression | cell-based PrP 5' UTR mRNA reporter, plate reader | inhibition, % (no concentration beside the values) | 340,000 tested, 0.35% active | AID 488862, 2010;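 active = every replicate at 50% or more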;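 also: 0 = median of the neutral control wells; tested in H4 reporter cells; numbers are from one replicate; inactives centre near -14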
Autofluor counter: counter-screen for toxin protease inhibitors: compound fluorescence | compound autofluorescence counterscreen, microsphere flow cytometry; active compounds read high | fluorescence intensity (no concentration beside the values) | 360,000 tested, 3.1% active | AID 624483;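 active = at least 3 SD above the mean of all compounds, about 16000 in these data; inconclusive = too few beads counted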;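 also: 100 nL of 1 mM stock went into each well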
Mtb hypoxia rep growth: also measured in Mtb hypoxia rep; calls as there; growth inhibition, %; measured here: M. tuberculosis growth (absorbance);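 0% = vehicle and 100% = reference antibiotic; read after six days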
Active calls of the source: *; ? = inconclusive; nt = no result given. Random draw from the library; overall some 4.1% were active at least once.

SMILES	Mtb hypoxia rep	Mtb hypoxia rep growth	Sa RN4220 lethal	Sa ugtP lethal	BJeLR lethal	PrP UTR inh	Autofluor counter
CCOc1cc(S(=O)(=O)N2CC=C(c3ccc(F)cc3)CC2)c(OCC)cc1-n1cnnn1	16	2	5.7	0	1	-46	9410
CC(C)OC(=O)CN1C(=O)C(=O)c2ccccc21	-1	9	2.9	-3	-10	-28	22394*
CC(=O)c1cccc(NC(=S)N2CCc3ccccc32)c1	11	-6	3.3	4	0	-12	4904
Cc1cccc(C(C(N)=O)c2ncc(C(F)(F)F)cc2Cl)c1 (configuration not stated)	-7	6	2.6	0	6	-11	2232
COc1ccccc1-c1c(C(F)(F)F)oc2cc(OS(C)(=O)=O)ccc2c1=O	-2	2	16	19	5	-17	9760
CC(=O)Nc1ccc(S(=O)(=O)N[C@@H](C)C(=O)N2CCN(C/C=C/c3ccccc3)CC2)cc1	1	-2	-1.8	-4	nt	nt	?
CCN1CCN(Cc2cc(OC)c3c(c2)OCO3)CC1	4	2	0.9	2	-5	-7	3909
CC1=C(C(=O)N2CCOCC2)C(c2ccccc2F)C2=C(CCCC2=O)N1 (configuration not stated)	4	5	-0.1	-5	3	-29	4546
COCCN(Cc1cc2cc3c(cc2n2nnnc12)OCO3)C(=O)c1ccccc1F	6	2	8.3	3	8	-19	10779
O=c1[nH]c(=O)n(CCc2ccccc2)c(O)c1C=NCc1ccc2c(c1)OCO2	6	-1	2.6	7	-10	4	15734
CCOc1ccc(N(CC(=O)NCC2CCCO2)C(=O)CCC(=O)Nc2ccccn2)cc1 (configuration not stated)	nt	nt	-0.2	3	2	-18	3775
C/C(N)=C(/C#N)C(=O)CSc1nnnn1-c1ccc(C)cc1	7	6	3.4	-2	8	-79	11082
CCC(C)c1ccccc1N1CC(C(=O)Nc2ccc(C)c(S(=O)(=O)N3CCOCC3)c2)CC1=O (configuration not stated)	4	1	1.0	3	-6	-11	?
CC(C)(CNS(=O)(=O)c1ccc2c(c1)OCCO2)N1CCOCC1	3	0	0.6	0	-4	-11	4553
O=C(c1cccc(S(=O)(=O)N2CCCC2)c1)N1CCN(c2ccccc2F)CC1	4	5	4.1	0	7	-22	11657
CC(=O)Nc1ccc(C(=O)Nc2cc(C(F)(F)F)ccc2-n2cnc3ccccc32)cc1	1	3	1.9	7	-6	-8	1965
CC1=C(C)CC(C(=O)Nc2ccc3c(c2)OCO3)C(C(=O)O)C1 (configuration not stated)	11	5	4.2	4	0	-8	4359
O=C(CSc1nc2ccccc2s1)NNC(=S)Nc1ccc(Br)cc1	-11	9	14	0	11	-37	2591
COc1ccccc1NS(=O)(=O)c1cc(C(=O)NCCN2CCOCC2)ccc1Cl	-8	6	1.2	-1	-4	0	8906
CCOC(=O)c1c(C)[nH]c(C(=O)OCC(=O)NC2(C#N)CCCCC2)c1C	1	-1	3.5	3	9	-10	5941
COc1ccc(/C=N/NC(=O)c2ccccc2O)cc1CN1CCOCC1	nt	nt	nt	nt	4	-21	3833
Brc1ccc2c(c1)OCCOCCOc1cc(Br)ccc1OCCOCCOCCO2	3	19	-7.8	68	8	-24	6987
COc1ccc(C(=O)c2cccc(C(=O)c3ccc(OC)c(C)c3)c2)cc1C	-11	-1	0.7	7	5	-17	4373
Cc1ccc(-c2csc(Cc3nc(-c4cc5ccccc5oc4=O)cs3)n2)cc1	1	1	2.5	12	10	-18	7025
COC(=O)C(CCSC)NC(=O)Cn1ccc(NC(=O)OCc2ccccc2)nc1=O (configuration not stated)	15	11	5.0	-2	nt	nt	nt
COc1ccc(-n2nc(C(=O)NCC(=O)NCCCN3CCC(C)CC3)c3ccccc3c2=O)cc1Cl	5	4	-1.7	10	-5	-14	4003
COc1cc(C(=O)NCCCC2CCCC2)ccc1OC1CCN(C(C)=O)CC1	7	2	-0.6	-1	2	-10	6370
CCOc1ccc(N2CC(C(=O)Nc3cc(OCC)c(N4CCOCC4)cc3OCC)CC2=O)cc1 (configuration not stated)	13	-3	0.5	-2	nt	-15	4611
COc1cccc(/C=N/n2nnnc2N)c1OCC#N	nt	nt	nt	nt	-7	-24	5372
CC1(C)CC2(CCCN(C(=S)Nc3ccccc3)C2)CCO1 (configuration not stated)	0	-4	2.8	0	5	-4	5902

Random excerpt: two compounds from above
SMILES	Mtb hypoxia rep	Mtb hypoxia rep growth	Sa RN4220 lethal	Sa ugtP lethal	BJeLR lethal	PrP UTR inh	Autofluor counter
COc1cccc(/C=N/n2nnnc2N)c1OCC#N	nt	nt	nt	nt	-7	-24	5372
CC(=O)Nc1ccc(C(=O)Nc2cc(C(F)(F)F)ccc2-n2cnc3ccccc32)cc1	1	3	1.9	7	-6	-8	1965

Continued:
SMILES	Mtb hypoxia rep	Mtb hypoxia rep growth	Sa RN4220 lethal	Sa ugtP lethal	BJeLR lethal	PrP UTR inh	Autofluor counter
C=CCSc1nc(N(CC)CC)c2sccc2n1	nt	nt	3.8	5	1	5	3992
c1ccc(Nc2nc(N3CCOCC3)c3ccccc3n2)cc1	nt	nt	-4.8	-15	4	-11	5826
COc1ccc(NC(=O)CN2CCOCC2)cc1S(=O)(=O)N1CCCCC1	2	3	4.6	5	nt	-19	3876
O=C(N/N=C\c1c(O)ccc2ccccc12)c1ccc(O)cc1	nt	nt	nt	nt	2	18	3264
Nc1nc(-c2ccco2)nn1C(=O)c1ccccc1Cl	-1	7	1.9	20	10	-11	4162
COc1cnn(-c2cccc(C)c2)c(=O)c1Cl	2	11	3.6	4	-4	-20	3821
COc1ccccc1N/C(N)=N/c1nc(CSc2nc3ccccc3s2)cc(=O)[nH]1	0	3	9.6	-14	13	nt	nt
COc1ccc(CC(=O)Nc2cc(S(=O)(=O)N3CCOCC3)ccc2N2CCOCC2)cc1	14	8	3.5	10	-4	-34	4537
CC1CCc2sc3ncnc(N4CCN(C)CC4)c3c2C1 (configuration not stated)	6	2	2.9	12	-2	-20	3683
COCCNC(=O)[C@@]1(C)C=CC(Cc2ccccc2)N1C(=O)c1ccccc1 (some centres not stated)	-8	3	1.5	-1	nt	nt	nt
C/C(=N\NC(=O)COc1ccc(C(C)(C)C)cc1)c1ccc(-n2ccnc2)cc1	nt	nt	nt	nt	-11	-44	3512
Cc1ccc(S(=O)(=O)N2CCOCC2)cc1C(=O)N1CCN(c2ccc(C(F)(F)F)cn2)CC1	3	5	5.5	10	nt	-23	4214
CCN(CC)c1ccc(NS(=O)(=O)c2cn(C)c(=O)n(C)c2=O)c(C)c1	1	10	-8.5	-10	-11	-19	6241
C/C=C(\C)CN1CCC(n2nccc2NC(=O)CCc2ccccc2)CC1	-4	-8	4.0	12	0	-8	nt
CN1CCN(C(CNC(=O)Nc2ccc(Cl)cc2)c2ccc(F)cc2)CC1 (configuration not stated)	3	9	-3.2	1	5	-14	5190
Cc1ccc(CNC(=O)CC(C)S(=O)(=O)c2ccc3c(c2)NC(=O)CO3)cc1 (configuration not stated)	12	6	-1.4	12	-13	-5	5181
CC(C)OP(=O)(OC(C)C)C1(O)C(=O)Nc2ccc(Br)cc21 (configuration not stated)	12	9	3.8	-2	-4	-13	2467
COc1ccc(CN(N=O)C2CC(=O)N(c3ccc(OC)cc3)C2=O)cc1 (configuration not stated)	16	6	1.2	8	-12	nt	4604
CCn1nc(C)c(/C=N/NC(=S)Nc2ccc(Cl)cc2Cl)c1C	nt	nt	nt	nt	-4	-48	2379
CCn1ccc(C(=O)NC2CCCC2)n1	9	7	1.5	3	-3	-18	6113
N#C/C(=C\c1c(N2CCN(c3ccccc3)CC2)nc2ccccn2c1=O)S(=O)(=O)c1ccccc1	-2	7	1.6	2	-6	-22	5617
CC(=O)C1=C(C)N(CC2CC2)C(=O)NC1c1ccc(Br)cc1 (configuration not stated)	5	6	2.2	-2	nt	nt	nt
Cc1ccc(C=NNC(=S)N2CCOCC2)cc1	5	-2	3.3	7	nt	nt	nt
C/C(C=NNC(=O)c1cccc([N+](=O)[O-])c1)=C\c1ccccc1	0	-2	6.0	-1	nt	nt	nt
CCOCCn1[nH]c2ccccc2c1=O	19	7	8.7	0	nt	-18	2998
CCOC(=O)c1c(C)[nH]c(C(=O)CSc2nnc(-c3cccs3)n2Cc2ccccc2)c1C	5	8	5.9	-23	-19	-3	10452
COC(=O)CN(c1cccc(F)c1)S(C)(=O)=O	nt	nt	1.8	-4	0	-13	2454
CN1C(C(=O)Nc2cccc(O)c2)=CC(c2ccco2)=NS1(=O)=O	nt	nt	3.3	6	-3	6	5880
COc1ccc2[nH]c(=O)c(CN(C(=O)c3cccnc3)c3ccc(C)cc3)cc2c1	4	9	8.0	4	2	-20	3359
CC(C)C(=O)NC(=S)Nc1ccccc1F	7	26	-1.2	14	-2	3	4904
Cc1cccc(NC(=O)CCN2C(=O)c3ccccc3S2(=O)=O)c1C	10	8	-5.7	4	9	-46	4695
O=C(Cn1c(=O)c2c(ncn2C2CCCC2)n(Cc2ccccc2)c1=O)N1CCc2ccccc21	nt	nt	-1.1	8	2	-10	3171
O=C(COC(=O)CCCC1=NS(=O)(=O)c2ccccc2N1)Nc1ccc(Br)cc1	0	-5	-0.7	-2	-8	-13	4397
COc1ccc(-c2[nH]ncc2CN(C)C(C)c2ccon2)c(OC)c1 (configuration not stated)	5	11	1.5	1	6	-4	4877
O=C(Nc1cc(Cl)ccc1Cl)P(=O)(O)c1ccccc1	21	13	4.9	8	nt	-13	3656
C/C(CCc1ccc2c(c1)OCO2)=N\NC(=O)c1ccc(C)cc1C	nt	nt	nt	nt	0	7	3488
Cc1nc2ncccn2c1-c1csc(Nc2ccc(S(N)(=O)=O)cc2)n1	11	2	2.8	1	-6	-15	4207

Compounds listed so far that have fluorine:
SMILES	Mtb hypoxia rep	Mtb hypoxia rep growth	Sa RN4220 lethal	Sa ugtP lethal	BJeLR lethal	PrP UTR inh	Autofluor counter
CCOc1cc(S(=O)(=O)N2CC=C(c3ccc(F)cc3)CC2)c(OCC)cc1-n1cnnn1	16	2	5.7	0	1	-46	9410
Cc1cccc(C(C(N)=O)c2ncc(C(F)(F)F)cc2Cl)c1 (configuration not stated)	-7	6	2.6	0	6	-11	2232
COc1ccccc1-c1c(C(F)(F)F)oc2cc(OS(C)(=O)=O)ccc2c1=O	-2	2	16	19	5	-17	9760
CC1=C(C(=O)N2CCOCC2)C(c2ccccc2F)C2=C(CCCC2=O)N1 (configuration not stated)	4	5	-0.1	-5	3	-29	4546
COCCN(Cc1cc2cc3c(cc2n2nnnc12)OCO3)C(=O)c1ccccc1F	6	2	8.3	3	8	-19	10779
O=C(c1cccc(S(=O)(=O)N2CCCC2)c1)N1CCN(c2ccccc2F)CC1	4	5	4.1	0	7	-22	11657
CC(=O)Nc1ccc(C(=O)Nc2cc(C(F)(F)F)ccc2-n2cnc3ccccc32)cc1	1	3	1.9	7	-6	-8	1965
Cc1ccc(S(=O)(=O)N2CCOCC2)cc1C(=O)N1CCN(c2ccc(C(F)(F)F)cn2)CC1	3	5	5.5	10	nt	-23	4214
CN1CCN(C(CNC(=O)Nc2ccc(Cl)cc2)c2ccc(F)cc2)CC1 (configuration not stated)	3	9	-3.2	1	5	-14	5190
COC(=O)CN(c1cccc(F)c1)S(C)(=O)=O	nt	nt	1.8	-4	0	-13	2454
CC(C)C(=O)NC(=S)Nc1ccccc1F	7	26	-1.2	14	-2	3	4904

Screens as filed in PubChem BioAssay.
